Vaccinia Venus: qHTS for Stage-Specific Inhibitors of Vaccinia Orthopoxvirus: Venus Reporter Primary qHTS; Vaccinia virus Venus reporter expression, fluorescence; Potency, µM (titrated, usually from 36.5 µM), for inactives: at the top dose activity change, negative = inhibition, actives largely listed as inhibitors; AID 720580, 2013; 0.46% of 330,000 active; active means well fitted inhibition curve with a large enough effect; inconclusive means small, poorly fitted or top-dose-only effect; inactive means no such curve, though single readings can be large or run the other way; tested in A549 cells; note: nearly all actives have a fitted effect of over 30% in size; inactives centre near -10
Vaccinia mCherry: qHTS for Stage-Specific Inhibitors of Vaccinia Orthopoxvirus: mCherry Reporter Primary qHTS; Vaccinia virus mCherry reporter infection, fluorescence; about a quarter of the inactives have no number; AID 720579, 2013; Potency, µM (series often up to 36.5 µM), without a hit: top-dose activity change, negative = inhibition, actives largely listed as inhibitors; 0.63% of 310,000 active; active = well fitted inhibition curve with a large enough effect; inconclusive = small, poorly fitted or top-dose-only effect; inactive = no such curve, though single readings can be large or run the other way; tested in A549 cells; note: nearly all actives have a fitted effect of over 35% in size; inactives centre near -10
An asterisk follows results filed as active; i = inactive; ? = inconclusive; . = not tested or not shown; [ ] = another dose, or the depositor's remark. % is set by controls: 0 for no effect and ±100 for the full control effect; potency is the fitted concentration of half-maximal effect.

Second line of a record: Vaccinia Venus	Vaccinia mCherry
Cc1cccc(C)c1NC(=O)c1csc([C@H]2C[C@H](O)[C@@H](CO)O2)n1
 : 7%	7%
CCOc1ccc(C(=O)NCC(c2ccc3c(c2)OCO3)N2CCN(c3ccc(F)cc3)CC2)cc1 (stereo not drawn)
 : -17%	-19%
Cc1cccc(N=C2NC(=O)/C(=C/c3cccn3C)S2)c1C
 : 1%	-23%
Cc1ccccc1C(=O)N1[C@@H](C(C)C)COc2cc(Br)ccc2S1(=O)=O
 : -10%	-15%
CCCS(=O)(=O)N1CCCC(C(=O)NCCN2CCC(Cc3ccccc3)CC2)C1 (stereo not drawn)
 : -5%	.
Cc1ccc(C2NC(=O)NC3=C2CCc2ccccc23)cc1 (stereo not drawn)
 : -2%	0%
CN(Cc1cccc(F)c1)C(=O)c1cccc(S(=O)(=O)N2CCN(Cc3ccccc3)CC2)c1
 : -23%	i
O=C1Nc2ccccc2C(=O)C1(Cl)Cc1ccccc1 (stereo not drawn)
 : -19%	.
CN(CC(=O)Nc1ccc(F)cc1)C(=O)COC(=O)CSc1ccc(F)cc1
 : -8%	-18%
O=C1CCN(Cc2ccccc2)C=C1c1ccc(Br)cc1
 : -21%	i
CC1(C)Cc2c(sc3nc(-c4ccccc4)n(N)c(=O)c23)CO1
 : -21%	7%
CCc1nc2c(OCCn3cccc3)cccn2c1N(C)C(=O)C1CC1
 : -11%	-13%
CCOc1ccc(Cc2nc(-c3nonc3N)no2)cc1OCC
 : -15%	-22%
CC12CCC(=O)N1C(C(=O)Nc1nnc(SCc3ccccc3)s1)CS2 (stereo not drawn)
 : -9%	-15%
CS(=O)(=O)c1ccc(NC(=O)c2cc3c(cc2Cl)N2CCCCCC2=NS3(=O)=O)cc1
 : -5%	-18%

Profiles, quoted from the list. Order of values: Vaccinia Venus | Vaccinia mCherry
Listed for Cc1cccc(C)c1NC(=O)c1csc([C@H]2C[C@H](O)[C@@H](CO)O2)n1 → 7% | 7%
Listed for Cc1cccc(N=C2NC(=O)/C(=C/c3cccn3C)S2)c1C → 1% | -23%
Listed for CCOc1ccc(C(=O)NCC(c2ccc3c(c2)OCO3)N2CCN(c3ccc(F)cc3)CC2)cc1 (stereo not drawn) → -17% | -19%
Listed for CC12CCC(=O)N1C(C(=O)Nc1nnc(SCc3ccccc3)s1)CS2 (stereo not drawn) → -9% | -15%
Listed for CCc1nc2c(OCCn3cccc3)cccn2c1N(C)C(=O)C1CC1 → -11% | -13%

Next part.
Second line of a record: Vaccinia Venus	Vaccinia mCherry
COCCn1c(SCC(=O)Nc2nnc(C)s2)nnc1-c1ccco1
 : 0%	0%
Cc1cc(NS(=O)(=O)c2ccc(NC(=O)/C=C/c3ccccc3Cl)cc2)no1
 : -17%	-3%
Cc1nc2c(C(=O)NCCc3ccccc3)c[nH]n2c(=O)c1Cc1ccc(F)cc1Cl
 : -2%	5%
COc1ccc(C2CC(=O)c3c(C)nc(N4CCN(C=O)CC4)nc3C2)c(OC)c1 (stereo not drawn)
 : -1%	-11%
COCCNC(=O)C(c1ccc(C)o1)N(C(=O)C(=O)NC1CCCCC1)c1ccc(F)cc1 (stereo not drawn)
 : -16%	i
CC(C)NC(=O)Cn1c(=O)cnc2ccccc21
 : -18%	i
Cn1c(CCNC(=O)OC(C)(C)C)n[nH]c1=S
 : -7%	-11%
CCOC(=O)c1c(-c2ccc(C)cc2)csc1NC(=O)c1cc(-c2ccc(C)c(F)c2)on1
 : 7%	-5%
CC(=O)Nc1nc(SCCCc2ccccc2)n[nH]1
 : -2%	.
COc1ccc2[nH]cc(CCNC(=O)Cc3ccc(Cl)cc3)c2c1
 : -18%	?
O=C(Nc1cc(C(F)(F)F)ccc1N1CCOCC1)c1ccc[n+]([O-])c1
 : -11%	.
CSc1ccc(NC(=O)N2CCC(C(=O)c3ccc(F)cc3)CC2)cc1
 : -22%	-1%
COc1ccccc1C(=O)COC(=O)CNS(=O)(=O)c1ccc(C)cc1
 : -4%	-5%
Cc1occc1-c1nnc(SCC(=O)Nc2ccc3c(c2)OCO3)n1CC1CCCO1 (stereo not drawn)
 : -24%	-8%
Cc1cccc(CCN(CC(=O)NC(C)(C)C)C(=O)c2csnn2)c1
 : -1%	-4%

The list continues.
Second line of a record: Vaccinia Venus	Vaccinia mCherry
CSc1ccc(CNC2CN3CCC2CC3)cc1 (stereo not drawn)
 : -15%	i
CCC(=O)c1ccc(OCC(=O)OCC(=O)c2cc(C)n(C3CC3)c2C)cc1
 : -1%	-4%
CCN1CCCC1CNC(=O)C(=O)Nc1ccccc1OC (stereo not drawn)
 : -12%	-15%
Cc1cc(S(=O)(=O)N2CCN(c3ccccc3F)CC2)ccc1-n1cnnn1
 : -28%	-28%
O=C(CSc1nnc(-c2ccccc2)n1-c1ccc(Cl)cc1)N/N=C/c1ccco1
 : -14%	-25%
O=C(N/N=C/c1ccc2c(c1)OCO2)c1cc(-c2ccncc2)nc2ccccc12
 : -29%	-5%
O=C(CCCSc1nc2ccccc2c(=O)[nH]1)c1ccc(F)cc1
 : -12%	1%
O=C(NCCCO)C(=O)NCC(c1ccc2c(c1)OCO2)N1CCOCC1 (stereo not drawn)
 : -5%	-7%
COc1ccccc1OCC(=O)Nc1ccc(S(=O)(=O)Nc2nccs2)cc1
 : -7%	i
COc1ccc(S(=O)(=O)N2CCOCC2)cc1C(=O)Nc1cc(C)on1
 : 0%	.
NC(=S)N/N=C/c1ccc(C23CC4CC(CC(C4)C2)C3)cc1
 : -19%	-10%
CSc1nc(N2CCOCC2)c2ccccc2n1
 : -7%	?
Cc1cc(Cl)ccc1OCC(=O)N1CCC(c2nc3ccccc3s2)CC1
 : 7%	-16%
COc1cc(C(=O)NN2C(=O)NC3(CCC(C)CC3)C2=O)ccc1OC(F)F (stereo not drawn)
 : -6%	-7%
COc1ccc(NC(=O)CSc2nc3c(oc4ccccc43)c(=O)n2-c2ccccc2)cc1OC
 : 0%	-4%

Next part.
Second line of a record: Vaccinia Venus	Vaccinia mCherry
Cc1cc(=O)oc2cc(OCC(=O)OC(C)C(=O)Nc3ccc(S(N)(=O)=O)cc3)ccc12 (stereo not drawn)
 : -5%	-11%
COc1ccc(NC(=O)C2(C)CCCN(C(C)C)C2)cc1OC (stereo not drawn)
 : 1%	-7%
COc1ccccc1CCNC(=O)Cc1c(C)c2ccc(O)cc2oc1=O
 : 2%	-2%
CC1C(=O)N2CCCc3cc(NC(=O)C(=O)NCc4ccc5c(c4)OCO5)cc1c32 (stereo not drawn)
 : -15%	-3%
CSCCC(NC(=O)c1ccccc1Cl)C(=O)NCC(c1ccco1)N1CCCCC1 (stereo not drawn)
 : -5%	-24%
COC(=O)c1ccc(C(=O)OC)c(NC(=O)CN(C)Cc2cccc(Cl)c2Cl)c1
 : -16%	-19%
COc1cc(C(O)c2nc(-c3ccc4ccccc4c3)cs2)ccc1F (stereo not drawn)
 : -9%	-7%
Cc1ccc(-c2nnc(N3CCC(C)CC3)c3ccccc23)cc1C
 : 13µM*	28µM*
CCN(CC)CC(O)CN1C(=O)NC(C)(C)C1=O (stereo not drawn)
 : -8%	i
CCOC(=O)C1CCN(C(=O)Nc2ccc3oc(C)nc3c2)CC1
 : -12%	i
Cc1ccccc1OCC(=O)OCC(=O)Nc1ccc(S(N)(=O)=O)cc1
 : -16%	i
Cc1cc(=O)n2[nH]c(C)c(-c3ccc(Cl)cc3)c2n1
 : -16%	-25%
Cc1cc(C)cc(N(CC(=O)NC2CCCCC2)C(=O)c2csnn2)c1
 : -3%	-6%
CNC(=S)Nc1cc(C)ccc1OC(F)F
 : -3%	-3%
Cc1c(C(=O)N2CCOCC2)c(S(=O)(=O)Nc2ccc(C(C)C)cc2)c(C)n1C
 : -15%	-20%

(list continues)
Second line of a record: Vaccinia Venus	Vaccinia mCherry
O=C(C1=NNC2C(=O)N(c3ccccc3)C(=O)C12)c1nc(Cl)ccc1Cl (stereo not drawn)
 : -9%	-14%
Cc1cccn2c(=O)c3cc(C(=O)N4CCCCC4)sc3nc12
 : -3%	-13%
O=C(CF)N(O)c1ccc(C=Cc2ccccc2)cc1
 : ?	?
COc1ccc(NC(=S)N2CCc3ccccc3C2)cc1
 : -14%	-19%
O=C(NCc1cccnc1)C(=O)N/N=C/c1ccc([N+](=O)[O-])cc1
 : -4%	-2%
CCc1ccc(NC(=O)CCn2cnc3ccccc3c2=O)cc1
 : -4%	-10%
O=C(Nc1cccc(Cl)c1)N1CCc2ccccc2C1
 : -9%	-8%
CC(C)c1cc(C(N)=O)c(NC(=O)c2cccc(COc3ccc(Cl)cc3)c2)s1
 : -13%	-5%
COc1ccccc1/C=N/n1nnnc1N
 : 1%	13%
Cc1cccc(N2C(=O)CC(=O)NC2=O)c1
 : -10%	-5%
COc1cc(O)cc2c1C(=O)OC(C)CCCC(=O)CCC/C=C\2 (stereo not drawn)
 : -3%	-15%
C=CCn1c(SCC(=O)NC2CCCC2)nc2c([nH]c3ccccc32)c1=O
 : -7%	-6%
CC1CCCCC12NC(=O)N(CC(=O)N1CCN(S(=O)(=O)c3ccc4c(c3)CCC4)CC1)C2=O (stereo not drawn)
 : -19%	-17%
CCc1nnc(NC(=O)CSc2nnnn2-c2cccc(C(=O)OC)c2)s1
 : 11%	.
CNS(=O)(=O)c1ccc(CNC[C@H]2O[C@@H](n3cnc(C(N)=O)n3)[C@H](O)[C@@H]2O)cc1
 : 0%	-22%

Single values from above.
Vaccinia mCherry result of `COc1cc(O)cc2c1C(=O)OC(C)CCCC(=O)CCC/C=C\2` (stereo not drawn) : -15%
Vaccinia mCherry result of `Cc1cccc(N2C(=O)CC(=O)NC2=O)c1` : -5%

Further compounds follow:
Second line of a record: Vaccinia Venus	Vaccinia mCherry
COc1ccc(CNC(=O)COC(=O)C2CCN(S(=O)(=O)c3ccccc3C(F)(F)F)CC2)cc1
 : -10%	i
COC(=O)[C@H]1[C@@H](C)N(Cc2ccccc2)C(=O)N[C@H]1c1cccc(C(F)(F)F)c1
 : -10%	-9%
Cc1cc(N2CCN(c3cccc(C(F)(F)F)c3)CC2)n2nc(-c3ccccc3C)nc2n1
 : 20%	-10%
Cc1ccc2oc(-c3ccc(Cl)c(NC(=O)c4ccc(-c5ccccc5[N+](=O)[O-])o4)c3)nc2c1
 : 7%	2%
COc1ccc(Oc2nc3ccccc3n3cccc23)cc1
 : -24%	.
COc1ccccc1N1CCN(Cc2ccc(F)cc2)CC1
 : -8%	-29%
Cc1cc(=O)[nH]c(-c2ccc(Cl)cc2)n1
 : 4%[7.34 µM]	-1%[7.34 µM]
O=C(O)/C=C/C(=O)c1ccc(O)cc1
 : -13%	-18%
COc1ccc(OCC(=O)N2CCCC(N3CCN(c4ccccc4C)CC3)C2)cc1 (stereo not drawn)
 : -14%	-6%
O=Nc1c(O)[nH]c2c(F)cccc12
 : -5%	-13%
CN1CCCC(CN2c3ccccc3Sc3ccccc32)C1 (stereo not drawn)
 : -27%	-29%
CCC(C(=O)NC1CCCCC1)n1c2ccccc2c2nc(=O)cc(C)n21 (stereo not drawn)
 : -10%	-6%
CCN(CC)C(=O)C(=O)c1cn(CCOc2ccccc2)c2ccccc12
 : -14%	i
NC(=O)C1CCN(CC(=O)Nc2cccnc2Cl)CC1
 : 13%	-11%
CC/C=C\C/C=C\C/C=C\CCCCCCCC(=O)O
 : -19%	-1%

Remaining list, next part
Second line of a record: Vaccinia Venus	Vaccinia mCherry
CCN1C(=O)[C@H]2[C@@H](c3ccccc3)N[C@]3(CCCN(Cc4ccc(C)cc4)C3=O)[C@H]2C1=O
 : -7%	i
O=C1CC(c2nc(-c3ccccc3)no2)CN1c1ccc2c(c1)OCCO2 (stereo not drawn)
 : 5%	1%
CC(C)(C)N1C(=O)[C@H]2[C@@H](c3ccc(Br)cc3)N3C(=O)N(c4cccc(F)c4)C(=O)[C@@]3(C)[C@H]2C1=O
 : -7%	-34%
O=C(C1=C[C@@H](c2ccc(C(F)(F)F)cc2)C[C@@H](OCc2ccc(CO)cc2)O1)N1CCN(Cc2ccc3c(c2)OCO3)CC1
 : ?	-10%
Cc1c(C(=O)OC/C(O)=C(\C#N)c2nc3ccccc3[nH]2)oc2ccc(Br)cc12
 : 3%	-19%
CCOC(=O)c1c(N)n(-c2ccc(C)c(Cl)c2)c2nc3ccccc3nc12
 : 2%	-9%
CCOC(=O)c1cccc(NC(=O)c2ccc3nc(CCc4ccccc4)oc3c2)c1
 : -1%	2%
Cc1ccc2c(c1)C(=C(C#N)C#N)C(=O)N2CCN1CCCCC1
 : 1%	-14%
Cc1cc(C)nc(N2CCCC(C(=O)NNC(=O)c3ccncc3)C2)n1 (stereo not drawn)
 : -6%	i
CCCCNC(=O)COC(=O)c1cc(C)nc2ccccc12
 : -3%	-7%
Cc1cn(C2CCCCO2)c(=O)nc1NO (stereo not drawn)
 : -12%	-8%
C/C(=N\NC(=O)c1ccc(CSc2nc(C)cc(C)n2)cc1)c1ccco1
 : -3%	1%
CSc1ccccc1NC(=O)COC(=O)c1ccc(-n2nc(C)cc2C)cc1
 : -21%	i
Fc1ccc2nc(Nc3nc4c(F)cccc4s3)sc2c1
 : -23%	-28%
COc1cccc(NC(=O)CSc2nc3c(c(-c4ccco4)c2C#N)CCCC3)c1
 : 1%	-3%
Cc1ccc(C2=NN=C(NC(=O)CSc3nnc4c5ccccc5n(C)c4n3)SC2)cc1
 : -14%	i
Cn1c(NC(=O)C2c3ccccc3Oc3ccccc32)cc(=O)n(C)c1=O
 : ?	.
Cc1cc(=O)n(C)c(=O)n1CCCCOc1ccc([N+](=O)[O-])cc1
 : -11%	-1%

Source: PubChem (National Center for Advancing Translational Sciences (NCATS))

Rows were taken by chance. Share with any hit: about 0.87%.
